# Screens: PubChem BioAssay, several laboratories
# Mtb betalactam – beta-lactam sensitization of Mtb H37Rv, H37Rv; M. tuberculosis H37Rv growth with meropenem, percent inhibition; hits of this screen are not shown here; inhibition, % at 25 µM; 330,000 tested, 0.27% active;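 active means about 74% or more and at least 40 points above the plate without the antibiotic, then above 30% in a dose series; inconclusive means first-round hits that could not be retested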;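 further: growth measured after seven days incubation then overnight dye step; 0% = bacteria only wells and 100% = bacteria with antibiotic; twin plates without the antibiotic show which effects depend on it; some results filed as inactive read as strong as hits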
# RecA intein inh – Mtb RecA intein splicing inhibitors, primary screen, biochemical, fluorescence, HTS; cell-free RecA intein splicing; 290,000 tested, 0.75% active; Protein RecA (Mycobacterium tuberculosis (strain ATCC 25618 / H37Rv)), P9WHJ3; inhibition, %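 (about 9 µM by stock and volumes)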; in the data active means inhibition above about 30%; inconclusive means no clear call, values can overlap the other calls;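 further: 0% = vehicle wells and 100% = reference inhibitor control wells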
# Target sequence (P9WHJ3 whole entry, looked up): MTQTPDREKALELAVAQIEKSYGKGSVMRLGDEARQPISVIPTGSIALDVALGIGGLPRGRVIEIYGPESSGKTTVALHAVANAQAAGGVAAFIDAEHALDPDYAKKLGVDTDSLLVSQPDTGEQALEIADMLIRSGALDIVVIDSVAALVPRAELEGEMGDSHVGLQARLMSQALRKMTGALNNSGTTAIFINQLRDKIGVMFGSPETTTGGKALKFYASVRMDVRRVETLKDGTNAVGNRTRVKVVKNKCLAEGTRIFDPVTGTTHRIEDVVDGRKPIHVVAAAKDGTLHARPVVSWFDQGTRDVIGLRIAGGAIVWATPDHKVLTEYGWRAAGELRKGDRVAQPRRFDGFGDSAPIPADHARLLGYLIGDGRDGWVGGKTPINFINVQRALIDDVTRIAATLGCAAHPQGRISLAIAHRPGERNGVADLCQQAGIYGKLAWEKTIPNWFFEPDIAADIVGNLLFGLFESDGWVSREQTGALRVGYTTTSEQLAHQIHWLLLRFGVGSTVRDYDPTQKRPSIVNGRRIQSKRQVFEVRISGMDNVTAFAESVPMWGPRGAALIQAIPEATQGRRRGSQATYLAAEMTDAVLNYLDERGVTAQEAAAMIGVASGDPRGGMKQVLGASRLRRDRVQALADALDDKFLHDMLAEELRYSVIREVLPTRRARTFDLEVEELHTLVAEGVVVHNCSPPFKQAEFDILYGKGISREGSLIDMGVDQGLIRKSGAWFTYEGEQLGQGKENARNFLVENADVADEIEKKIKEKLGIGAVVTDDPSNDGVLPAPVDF
# YopH inh – YopH tyrosine phosphatase inhibitors, primary screen, biochemical, fluorescence Ex485/Em525; inhibition, %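 (about 10 µM by stock and volumes)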; 140,000 tested, 0.16% active; AID 898, 2007; YopH tyrosine phosphatase [Yersinia enterocolitica];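 active means inhibition of 50% or more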;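 further: controls were vehicle for no effect and minimum signal wells for full effect; inactives centre near -20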
# Arbovirus anti – antivirals against arbovirus infection, primary screen, cell-based, full library, 10K replicate subset. 200,000 tested, 0.37% active. inhibition, % at 10 µM. arbovirus infection cell-based antiviral screen;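 active means inhibition from about 30%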;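 further: bluetongue infection of BSR cells; cell survival read as ATP light after 72 h; 0% = infected wells without compound and 100% = uninfected wells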
# Mtb H37Rv – M. tuberculosis H37Rv growth inhibitors, H37Rv strain (AID 1626). M. tuberculosis H37Rv growth inhibition; higher % means a stronger effect. one-dose inhibition, % at 10 µM; IC50 in µM for titrated hits. 220,000 tested, 0.95% active;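 active means confirmed in a dose series; inconclusive means inhibition above 80% but not taken into the dose series; inactive means below 80% or under 30% at every dose of the series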;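 further: bacteria incubated seven days before Alamar blue readout; 0% = bacteria only wells and 100% = bacteria with antibiotic wells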
# Arbovirus anti repeat – second read-out of Arbovirus anti, no call of its own (marks repeat the call); inhibition, %; measured here: 10K subset replicate screen; many hits read low in the repeat;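 first of two repeat runs on a subset; 0% = infected and 100% = uninfected wells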
# * hit, by the source's call; ? = inconclusive; · = no result given.
# Preview:
SMILES,Mtb betalactam,RecA intein inh,YopH inh,Arbovirus anti,Mtb H37Rv,others
CCOc1cc(CNCCc2ccc(S(N)(=O)=O)cc2)ccc1OCC(=O)NC(C)(C)C,6,-7.6,-25,-18,17%,
CCOC(=O)C(=CNc1ccc(Oc2cccnc2)nc1)C(=O)OCC,5,-1.8,·,·,1%,

# The list itself, repeating the preview:
SMILES,Mtb betalactam,RecA intein inh,YopH inh,Arbovirus anti,Mtb H37Rv,others
CCOc1cc(CNCCc2ccc(S(N)(=O)=O)cc2)ccc1OCC(=O)NC(C)(C)C,6,-7.6,-25,-18,17%,
CCOC(=O)C(=CNc1ccc(Oc2cccnc2)nc1)C(=O)OCC,5,-1.8,·,·,1%,
Cc1cccc2c3c([nH]c12)CCNC3,-6,-1.1,·,·,·,
Cc1cccc(Nc2ccccc2C(=O)O)c1C,-5,-0.6,-26,28,-12%,
COc1cc(/C=N/NS(=O)(=O)c2ccc3ccccc3c2)ccc1OCCN1CCOCC1,7,-2.2,-24,1,0%,
CC(=O)Oc1cccc(N2C(=O)c3ccc(C(=O)Nc4c[nH]c(=O)[nH]c4=O)cc3C2=O)c1,-6,-2.4,·,6,0%,
COc1cccc(OC)c1OCCNCC1COc2ccccc2O1 (configuration not stated),2,0.1,·,·,-11%,
O=C(Cn1nnc(-c2ccc(Cl)cc2)n1)NCc1ccco1,11,3.7,·,-2,8%,
Cc1ccc(C)c(NC(=O)CCc2nnc3ccc(N4CCCC4)nn23)c1,4,-0.3,·,·,·,
COc1ccc(NC(=O)CSc2c3c(nc4ccccc24)CCC3)c(OC)c1,7,11,-28,7,3%,
CCOC(=O)c1cc(=O)cc(C(=O)OCC)o1,-1,-0.1,5,0,-1%,
CC(NC(=O)CN1CCOCC1)c1ccc(F)cc1 (configuration not stated),-3,1.8,·,·,·,
CCCCCNC(=O)c1cccc(S(=O)(=O)N2CC3(C)CC2CC(C)(C)C3)c1 (configuration not stated),0,8.9,·,·,·,
Cc1cccc(NC(=O)c2cnc3sccn3c2=O)c1,-6,-1.6,·,7,·,
CCn1cc(Br)c(C(=O)Nc2nccs2)n1,2,2.6,·,-3,3%,

# The list goes on, starting with the last 3 of the part before.
SMILES,Mtb betalactam,RecA intein inh,YopH inh,Arbovirus anti,Mtb H37Rv,others
CCCCCNC(=O)c1cccc(S(=O)(=O)N2CC3(C)CC2CC(C)(C)C3)c1 (configuration not stated),0,8.9,·,·,·,
Cc1cccc(NC(=O)c2cnc3sccn3c2=O)c1,-6,-1.6,·,7,·,
CCn1cc(Br)c(C(=O)Nc2nccs2)n1,2,2.6,·,-3,3%,
CCc1nnc(NC(=O)CSc2nnc(Cc3ccccc3)n2-c2ccc(OC)cc2)s1,?,1.7,-25,11,-7%,
CCc1cc(C(=O)N/N=C/c2c(C)[nH]c3ccccc23)cs1,1,1.4,-4,-6,1%,
COc1ccc2c(C(=O)c3ccc(C)cc3)n(CCCC(N)=O)[n+]([O-])c2c1,7,-0.6,·,·,·,
Nc1n[nH]c(N)c1N=Nc1cccc(C(F)(F)F)c1,87,8.4,·,·,·,
CCCCSCCCNC(=O)C1CCC(CNS(=O)(=O)c2ccccc2)CC1 (configuration not stated),76,-0.1,·,·,·,
CC1CCN(c2ccc(-c3ccc(NC(=O)c4ccco4)cc3)nn2)CC1,60,0.3,·,·,·,
O=C(O)CCC(=O)Nc1ccc(S(=O)(=O)c2ccc(NC(=O)CCC(=O)O)cc2)cc1,5,-0.1,·,·,·,
Cc1cc(NC(=O)CSc2ccc(Cl)cc2)no1,94,0.3,-53,0,9%,
CCNC(=O)NC1c2ccccc2CSc2ccccc21 (configuration not stated),8,2.3,·,·,·,
CC(C)(O)C#Cc1ccc(CN2CCCC(CO)(Cc3cccc(Cl)c3)C2)cc1 (configuration not stated),4,2.1,·,-29,-2%,
O=C(CCCn1c(=S)[nH]c2ccccc2c1=O)N1CCOCC1,6,-1.6,-1,-1,-3%,
CCOC(=O)C(=O)c1csc(NC(=O)COc2ccc(N(C)S(=O)(=O)c3ccc(F)cc3)cc2)n1,8,1.3,-7,11,-6%,
CCOC(=O)c1ccccc1NC(=O)C=C(C)C,-2,-0.7,-22,-10,-2%,
CCC(=O)Nc1cccc(-c2nnc(-c3cccc(NC(=O)CC)c3)o2)c1,-15,·,-4,8,-8%,
COc1ccc(CCNC(=O)c2cc(S(=O)(=O)N3CCCC3)cn2C)cc1OC,2,-1.6,·,·,·,
C1=CCC(CN2CCN(C3CCCCCC3)CC2)CC1 (configuration not stated),4,-2.5,·,-10,8%,
COc1ccc(CN(C)C(=O)c2[nH]c(C)c(C(C)=O)c2C)cc1F,7,-6.8,·,·,·,
CCOc1ccc(-n2c(C)c(C(=O)OC)c3cc(O)ccc32)cc1,15,-0.2,·,·,·,
CC(=O)c1ccc(OCCCC(=O)Nc2cccc(-c3nn[nH]n3)c2)cc1,-2,-0.7,·,·,·,
Cc1cc(C)nc(NS(=O)(=O)c2ccc(NC(=O)c3nn(-c4ccccc4)ccc3=O)cc2)n1,7,0.6,·,·,·,
CCN(c1ccccc1)S(=O)(=O)c1ccc(Cl)c(C(=O)O)c1,-2,-2.3,·,4,-6%,
CC(NS(C)(=O)=O)c1nnc2n1-c1ccc(Br)cc1C(c1ccccc1Cl)=NC2 (configuration not stated),-2,1.8,·,·,·,
CCOC(=O)N1CCN(Cc2ccccc2Cl)CC1,?,·,-11,1,-1%,
CC1Sc2ccc(S(=O)(=O)CCC(=O)Nc3ccccc3Cl)cc2NC1=O (configuration not stated),-1,2.4,·,·,·,
COc1ccccc1/C=C/C(=O)Oc1cccc2cccnc12,100,-17,·,6,2.8µM*,
N#Cc1nc(-c2ccccc2F)oc1N1CCCC1,-9,-0.9,-8,3,-1%,
O=[N+]([O-])c1ccc(CSc2ncnc3ccccc23)cc1,6,5.3,·,3,8%,
CSc1nccc(N/N=C/c2ccccc2)n1,-1,1.0,·,·,·,
COC(=O)c1ccc(CSc2nccn2C)cc1,2,0.0,38,5,-2%,
O=C(Nc1ccc(S(=O)(=O)N2CCOCC2)cc1)c1ccc([N+](=O)[O-])cc1Cl,0,-4.3,·,·,·,
Cc1cccc(NC(=S)NCCc2ccc(S(N)(=O)=O)cc2)c1C,9,0.4,-30,5,8%,
O=C(COc1ccc2c3c(c(=O)oc2c1)CCC3)NC1CCCCC1,-4,-2.1,-52,1,0%,
COc1ccc(NC(=O)CCCCCN2C(=O)c3ccccc3C2=O)c(OC)c1,-5,-1.3,·,·,·,
N#C/C(=C\c1cc(Cl)cc(Cl)c1O)C(=O)NC1CCCCC1,7,·,-39,18,-2%,
CC(C)C(NC(=O)c1ccc(C(C)(C)C)cc1)C(=O)NCC(c1ccccc1)N(C)C (configuration not stated),3,2.6,·,·,2%,
COc1ccc2[nH]c(C(=O)O)c(CCNC(C)=O)c2c1,1,-3.1,-7,5,·,
COc1cc2c3c(c1)C1(C(=O)N3C(C)(C)C=C2C)C(C#N)=C(N)Oc2cc(O)ccc21 (configuration not stated),9,9.8,17,10,-4%,
CCc1ccccc1-n1c(SCC(=O)N2CCCC2)nnc1-c1ccccn1,0,3.3,18,1,3%,
Cc1cc(C)n(/N=C/c2cc(Cl)cc(Cl)c2O)c(=O)c1,-1,8.9,·,-3,-6%,
COc1ccc(N(CC(=O)N2CCN(Cc3ccc4c(c3)OCO4)CC2)S(=O)(=O)c2ccc(F)cc2)cc1,0,2.5,·,·,5%,
CN(C1(C)CCS(=O)(=O)C1)S(=O)(=O)c1ccc(F)cc1 (configuration not stated),-4,1.8,·,·,·,
COc1cccc(CN2CCN(C(=O)CC(C)C)CC2)c1,-2,-1.4,-7,-2,4%,
Cc1ccc(S(=O)(=O)N2CCCC2CNC(=O)c2ccccc2)cc1 (configuration not stated),-10,-0.2,·,·,·,
CCOc1cc(C2C(C(=O)N3CCCCC3)=C(C)NC3=C2C(=O)CC(C)(C)C3)ccc1O (configuration not stated),-5,-5.4,-54,-1,22%,
O=C(O)c1ccc(Br)c(S(=O)(=O)N2CCCC2)c1,0,-2.3,-64,3,-12%,
CC1=NN(c2ccccc2)C(=O)C1/C=C1/C(=O)NC(=O)N(c2cc(C)cc(C)c2)C1=O (configuration not stated),-4,21,-24,7,·,
Cc1csc(=O)n1CC(=O)OCC(=O)N(CC(C)C)c1c(N)n(Cc2ccccc2)c(=O)[nH]c1=O,-11,0.3,·,·,·,
C=C1[C@@H](OC(C)=O)[C@]23C[C@@H]1[C@@H](OC(C)=O)CC2[C@]12C4C[C@H]3[C@H]1N(CC)C[C@]4(C)CC[C@@H]2O (some centres not stated),-5,3.5,·,·,0%,
COc1cc(CN2CCN(c3cccc(C)c3C)CC2)cc(OC)c1O,8,-5.3,-26,-2,-9%,
COc1ccc(OCCCN2CCCC(C)C2)cc1 (configuration not stated),-9,11,0,7,-5%,
O=c1c2ccccc2oc2ccc(Oc3ccccc3)cc12,38,15,·,·,·,
COc1ccc(C2=CC3=C(Br)C(=O)C(C)(OC(=O)c4ccco4)C(=O)C3=CO2)cc1 (configuration not stated),-2,-8.8,·,·,0%,
CCN1CCN(CCNC(=O)c2ccc3c(c2)NC(=O)/C(=C\c2ccc(OC)c(OC)c2)S3)CC1,6,-0.9,·,·,·,
CCc1ccc(NC(=O)CC2C(=O)N(c3ccc(OC)cc3)C(=O)N2CCOC)cc1 (configuration not stated),6,-1.9,·,·,·,
CCC(C)(C)C1CCc2[nH]nc(C(=O)NN)c2C1 (configuration not stated),5,-1.7,·,·,5%,
O=C(c1ccc([N+](=O)[O-])cc1)N1CCN(C(=O)c2ccco2)CC1,-6,8.6,·,-1,-8%,
CC1(C)Cc2ccccc2C(N)=C1C#N,·,5.0,-12,-8,-6%,Arbovirus anti repeat=-3
Cc1ccc(SCC(=O)NCCSCc2ccccc2)cc1,8,2.3,-27,-12,7%,
CCCCCOc1ccc(Br)cc1/C(C)=N/NC1=NCCN1,99,20,1,-36,·,
Cc1cc(C)c2c(-n3cccc3)nn(CC#N)c2n1,-19,5.3,-50,2,0%,

# Continuation:
SMILES,Mtb betalactam,RecA intein inh,YopH inh,Arbovirus anti,Mtb H37Rv,others
COc1ccc(COc2ccccc2C(N)=O)cc1F,3,·,-22,1,-4%,
CN(C(=O)CN1C(=O)/C(=C/c2ccc(F)cc2)SC1=S)C1CCS(=O)(=O)C1 (configuration not stated),6,2.1,·,·,·,
CCOc1ccccc1NC(=O)Cn1nc(-c2ccco2)ccc1=O,-5,8.0,·,·,·,
Cc1cc(C)cc(OCC(=O)OCC(=O)c2cc(C)n(C3CC3)c2C)c1,?,2.7,·,·,·,
O=C(O)c1ccc(Nc2ncnc3scc(-c4ccccc4)c23)cc1,1,-1.7,·,-4,10%,
Cc1ccc(-n2cc(S(=O)(=O)c3ccc(C)cc3)[nH]c2=O)cc1,0,-0.3,·,8,11%,
CCN(CC)C(=O)CSc1nc(Cc2ccccc2)nc2ccccc12,4,7.7,·,·,·,
Cc1cc(C(=O)COC(=O)c2ccncc2)c(C)n1Cc1ccco1,3,·,·,-1,-1%,
CC(=O)/C(=N\Nc1ccc(C)cc1)N1CCOCC1,99,-1.0,-31,-37,?,
COc1ccc2nc3ccccc3nc2c1NC(=O)c1ccccc1Cl,-8,-42,·,-7,4%,
Cc1c(C)c2c(OCC(=O)O)cc3c(c2oc1=O)CCC(C)(C)O3,-6,-5.0,·,·,·,
CCN(CC)CCn1c(SCC(=O)NCCC2=CCCCC2)nc2c(sc3ccccc32)c1=O,5,0.7,·,-24,0%,
CCC1(C)N([O-])C(C)=C(c2ccccc2)[N+]1=O (configuration not stated),-1,-9.3,6,8,-9%,
CC1CN(C(=S)Nc2ccc(S(N)(=O)=O)cc2)CC(C)O1 (configuration not stated),-7,-4.2,·,·,·,
CCOC(=O)CC(=O)NC(CC(=O)OC)c1ccc(Br)cc1 (configuration not stated),-11,0.0,·,9,2%,

# The final 2 compounds of the part above are carried over, then new ones follow.
SMILES,Mtb betalactam,RecA intein inh,YopH inh,Arbovirus anti,Mtb H37Rv,others
CC1CN(C(=S)Nc2ccc(S(N)(=O)=O)cc2)CC(C)O1 (configuration not stated),-7,-4.2,·,·,·,
CCOC(=O)CC(=O)NC(CC(=O)OC)c1ccc(Br)cc1 (configuration not stated),-11,0.0,·,9,2%,
O=C(c1ccccc1F)N1CCN(c2ccc([N+](=O)[O-])c(N3CCOCC3)c2)CC1,-4,3.5,·,-5,-5%,
Cc1cc(C)nc(-n2nc(C)cc2NC(=O)CNCc2ccccc2)n1,-4,2.4,-20,4,8%,
COc1ccc(N(C(=O)Cn2nnc3ccccc32)C(C(=O)NC(C)(C)C)c2ccc(OC)c(O)c2)cc1 (configuration not stated),-3,0.3,·,-1,2%,
COc1ccc(/C=C2\N=C(C)N(c3ccc4ccccc4c3)C2=O)cc1OC,12,-4.3,-25,0,15%,

# The list is partial (hit frequency here may not be typical).
